Calb biofilm kill: mixtures killing C. albicans biofilm; hit rate 0.02% among 120,000; inhibition, % at 7.6 µM; AID 1242; C. albicans biofilm persisters + clotrimazole, fluorescence viability; primary screen in compound mixtures of four per well;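 active means inhibition above 30.3% in the primary screen of four-compound pools, then above 30% when the compound was retested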;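 further: compounds exposed to preformed 24 h biofilms for 48 h; the number belongs to the whole pool; some results filed as inactive read as strong as hits; inactives centre near 12; 0% = biofilm with clotrimazole alone and 100% = kill control; retested singly at about 60 µM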
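Test system: C. albicans biofilms. Buffer or medium: RPMI/MOPS medium, pH 7.0. Timing: 48 h compound exposure at 37 °C. Technique: Alamar Blue fluorescence. Evaluation: percent inhibition of biofilm viability.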
An asterisk follows results filed as active; & = joins results of further samples. A portion of the library; the hit share may differ from the screen's.

SMILES	Calb biofilm kill
CC[C@@H]1C(=O)OC[C@@H]1Cc1cncn1C	10&10

Bioassay records: PubChem, PCMD
